Source: PubChem BioAssay
AID504770: growth inhibition of E. coli YBA685, primary screen, V. cholerae RctB inhibitors; E. coli YBA685 rctB-dependent plasmid, OD600 growth, 3 h; stronger effect = lower value; z-score (no concentration beside the values); actives 0.27% (n = 130,000); AID 504770, 2011;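 active = z-score under -2 on both plates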;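 also: wells of about 30 µL received 100 nL stock; score is relative to mean and SD of the test wells; the first replicate is given; strong numbers were not always called active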
CapD inh: Bacillus anthracis CapD inhibitors, primary screen, biochemical, fluorescence intensity. actives 0.23% (n = 140,000). z-score (concentration not given with the values). purified CapD enzyme, fluorescence intensity read-out; stronger effect = lower value; some hits fall short of the stated cut. CapD gamma-glutamyltranspeptidase (Bacillus anthracis Ames Ancestor);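 active = z-score under -4 in either of two replicates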;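 also: stock transfer was 100 nL into about 40 µL; score is relative to mean and spread of the plate; one replicate is shown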
Numbers without * were called inactive; . = not tested or not shown; & = joins results of further samples.

Sequence of screens: AID504770 | CapD inh
CC1(C)CC(C(=O)NCCC(c2ccccc2)c2ccco2)CCO1 (stereo not given)
→ 2.4 | -0.79
O=C(Nc1ccccc1)C(=S)N1CCOCC1
→ 1.2 | -0.12
Cc1ccc2nsnc2c1NC(=O)C(c1ccccc1)c1ccccc1
→ 0.25 | 0.25
O=C(COC(=O)C12CC3CC(CC(Cl)(C3)C1)C2)NCc1cccs1
→ -0.2 | 0.12
COc1cccc(Nc2ncccc2C(=O)Nc2ccc(F)cc2)c1
→ -0.25 | -0.34
CC(=O)NC(CC(=O)Nc1ccc(N2CCOCC2)cc1N1CCOCC1)c1ccccc1 (stereo not given)
→ 0.15 | .
Cc1cc(C)c(-c2ccn(C(=O)c3snnc3C)n2)[nH]1
→ -0.4 | -0.57
O=C(Nc1ccccc1)c1cc(Cl)c(=O)n(Cc2ccc(Cl)cc2)c1
→ . | -0.015
O=C(CSC1=NCCN1)C1COc2ccccc2O1 (stereo not given)
→ -0.85 | .
O=C(CCS(=O)(=O)c1ccccc1)Nc1ccccc1N1CCOCC1
→ -0.2 | .

Four structures out of the list, ordered by SMILES length, ascending:
Sequence of screens: AID504770 | CapD inh
O=C(CSC1=NCCN1)C1COc2ccccc2O1 (stereo not given)
→ -0.85 | .
Cc1ccc2nsnc2c1NC(=O)C(c1ccccc1)c1ccccc1
→ 0.25 | 0.25
O=C(CCS(=O)(=O)c1ccccc1)Nc1ccccc1N1CCOCC1
→ -0.2 | .
O=C(Nc1ccccc1)c1cc(Cl)c(=O)n(Cc2ccc(Cl)cc2)c1
→ . | -0.015

Later entries
Sequence of screens: AID504770 | CapD inh
CCCCCOc1ccc(C2Oc3ccccc3C3CC(c4ccc(OC)cc4)=NN32)cc1 (stereo not given)
→ . | 0.27
CCOc1ccc(C(=O)SC2=NCCS2)cc1
→ -0.75 | 5.1
CC(C)(C)n1nc(C2CC2)cc1N
→ . | -0.13
CCN1C(=O)C2ON(c3ccc(Cl)cc3)C(c3ccc(N(C)C)cc3)C2C1=O (stereo not given)
→ -0.2 | 0.14
CC1(C)/C(=N\OC(=O)c2cccc(C(F)(F)F)c2)[C@]2(C)CCC1C2
→ . | -0.55
CCOC(=O)c1c(C)oc2ccc(N(C(C)=O)S(=O)(=O)c3ccc(CC)cc3)cc12
→ . | -0.6
CCn1c(=O)cc(OCC(=O)N2CCCCC2C)c2ccccc21 (stereo not given)
→ -1.9 | 0.39
Cc1ccc2nc(NC(=O)c3ccc(Br)s3)sc2c1
→ 0.6 | 0.29
CN(CCC(N)=O)Cc1ccccc1
→ -0.45 | .
N#Cc1c(OCC(F)(F)F)ccc(Sc2ncccn2)c1OCC(F)(F)F
→ -0.65 | 0.56
O=C(NCC(=O)N1CCc2ccccc2C1)c1ccc2c(c1)OCO2
→ -0.35 | .
COC(=O)c1ccc(NC(=O)C2CC(=O)N(CCc3ccc(OC)c(OC)c3)C(=Nc3ccc(OC)cc3)S2)cc1 (stereo not given)
→ . | 0.21
Cc1oc2c(CN3CCCC(C)C3)c(O)ccc2c(=O)c1-c1nc2ccccc2s1 (stereo not given)
→ -0.8 | -0.85
Clc1nnc(-c2ccccc2)c(-c2ccccc2)n1
→ -0.7 | -0.53
Cn1nnc2cc(C(=O)NC3CC3)ccc21
→ -0.35 | 0.32
Cc1cc(N2CCN(C3CCCCC3)CC2)nc2cc(O)ccc12
→ 0.5 | 70
Cc1nnc(SCC(=O)N2N=CCC2c2ccccc2)s1 (stereo not given)
→ -0.45 | 0.085
COc1cc(CCNC(=O)OCC2(c3ccc(Cl)cc3)CC2)cc(OC)c1
→ . | 0.46
CCOC(=O)c1sc(N=Nc2cc3c4c(c2O)CCCN4CCC3)c(C(=O)OCC)c1C
→ -0.05 | 0.2
C1=CC2C(C1)C1CC(NC3=NCCS3)C2C1 (stereo not given)
→ -0.8 | 0.28
O=C(Cn1c2ccccc2n2ncnc12)c1ccc(-c2ccccc2)cc1
→ -0.55 | -0.49
CCN(Cc1ccccc1)C(=O)C1C(=O)CC(C)(C)C(C(=O)OC)C1=O (stereo not given)
→ -0.8 | .
Cn1nnc(NCc2cc(Br)ccc2OCc2ccccc2F)n1
→ -0.35 | -0.015
COc1cc(OC)nc(OC(Cc2ccnc3ccccc23)c2cccc(C(F)(F)F)c2)n1 (stereo not given)
→ . | -0.045
CN(C)C(CNC(=O)Nc1ccccc1)c1cccnc1 (stereo not given)
→ -0.05 | .
N#C/C(=C\Nc1ccc(F)cc1)S(=O)(=O)c1cccs1
→ -0.75 | -0.84
CC1CCCCN1C(=O)Cn1c(=O)n(-c2ccc(F)cc2)c(=O)c2sccc21 (stereo not given)
→ -0.4 | 0.52
O=C(COC(=O)c1cnccn1)c1ccc(C2CCCCC2)cc1
→ 0.05 | -0.1
O=C(NN1CCOCC1)c1ccc(C(=O)c2ccccc2)cc1
→ -0.1 | .
CCOC(=O)C1CCCN(S(=O)(=O)c2ccc3c4c(cccc24)C(=O)N3CC)C1 (stereo not given)
→ 0.15 | .
O=[n+]1c2c(n([O-])c3c1CCCC3)CCCCC2
→ -1.2 | -0.04
CC1=C(C#N)C(=O)N(CCO)C(=O)/C1=C\c1ccc(-c2ccccc2)o1
→ 0 | 4.6
CC(C)(C)c1cc(C(C)(C)C)n(-c2ccc(N3C(=O)COCC3=O)cc2)n1
→ 0.6 | 0.89
O=C(CC1SC(=Nc2ccccc2)NC1=O)NCc1ccccc1 (stereo not given)
→ 0.2 | 0.11
CC(=O)N1c2ccccc2NC2=C(C(=O)CCC2)C1c1ccco1 (stereo not given)
→ -0.3 | -0.41
CC(=O)[C@H]1CCC2C3CC=C4C[C@@H](O)CC[C@]4(C)C3CC[C@@]21C (stereo not given in full)
→ 0.7 | -0.37
c1ccc(N2CCN(CSc3nc4ccccc4s3)CC2)cc1
→ 2 | .
COc1cc(/C=N/NC(=O)N/N=C/c2cc(OC)c(OC)c(OC)c2)cc(OC)c1OC
→ . | 8.6
N/C(=N\O)c1ccncc1
→ 1.7 | 0.09
Cc1sc2nc(SC(C)C#N)n(C(C)C)c(=O)c2c1C (stereo not given)
→ 0.85 | .
CC(=O)c1c(C)oc2ccc(N(C(=O)c3ccccc3)S(=O)(=O)c3cccc([N+](=O)[O-])c3)cc12
→ . | -0.36
Cc1cccc(NC(=O)NC2CCCCC2)n1
→ 0.85 | 0.88
CCN(CC)CCNC(=O)c1ccc(NC(=O)c2ccc3c(=O)n(Cc4ccc5c(c4)OCO5)c(=S)[nH]c3c2)cc1
→ . | -0.11
O=C1CCCN2N=C(SCC(=O)NCc3ccco3)SC2=N1
→ 1.7 | .
CCOC(=O)C1=C(C)NC(=O)NC1c1cccc([N+](=O)[O-])c1 (stereo not given)
→ . | -0.25
O=C(Cn1nc(-c2ccccc2)ccc1=O)NCCc1ccccc1
→ -1.5 | 1.7
CCS(=O)(=O)c1ccc(O)c(NC(=O)CSCC(=O)O)c1
→ -0.8 | -0.74
CCOc1cccc2c1OC(c1cc(OC)ccc1OC)N1N=C(c3ccco3)CC21 (stereo not given)
→ . | 0.17
Cc1ccc2c(c1Br)C1(C(=O)N2)C(C#N)=C(N)Oc2n[nH]c(C(C)C)c21 (stereo not given)
→ . | -0.19
Cc1cccc(-c2noc(CNC(=O)C34CC5CC(CC(C5)C3)C4)n2)c1
→ 0.1 | 0.64

Remaining list, next part:
Sequence of screens: AID504770 | CapD inh
O=c1cc(CSc2ncccn2)nc2sccn12
→ 0.75 | .
O=C1NC(=O)C(=Cc2ccccc2Oc2ccc(Cl)c(F)c2)C(=O)N1
→ . | -0.21
Nc1ccc(S(N)(=O)=O)cc1
→ 0.8 | 77&1
C=CCN1C(=O)c2ccc(C(=O)OCC(=O)c3cc(C)n(-c4cc(C)on4)c3C)cc2C1=O
→ 1.9 | .
Cc1nc(=O)c(-c2ccccc2)c(C)n1CCCN1CCOCC1
→ 0.25 | .
N#CCCN(CCC#N)c1ccc(CN2CCCC(COC(=O)NCCc3c[nH]c4ccc(Cl)cc34)C2)cc1 (stereo not given)
→ . | -0.82
O=C(Cn1c(=O)oc2cc(S(=O)(=O)N3CCCC3)ccc21)N1CCCC1
→ -0.35 | -0.12
COc1cccc(C(=O)N=c2sc3cc(Cl)ccc3n2C)c1
→ 0.65 | 0.18
O=C(O)C1CSC(c2ccccc2Cl)N1C(=O)c1ccccc1F (stereo not given)
→ -1.1 | 0.085
NNC(=O)CSc1cc(C(F)(F)F)nc2ccccc12
→ . | -0.29

(more compounds)
canonical_smiles	AID504770	CapD inh
COCC(C)n1c(Sc2ncnc3sccc23)nc2ccccc2c1=O (stereo not given)	-0.5	.
C=CCNC(=O)CN1C(=O)COc2ccccc21	0.9	.
CN(C)/C=C/c1cc(=S)c2ccccc2s1	-0.75	-0.32
c1ccc2oc(-c3ccc(-c4nc5ccccc5o4)cc3)nc2c1	1.8	2.8
S=c1nc(NCCc2ccccc2Cl)c2ccccc2[nH]1	2.1	3.2
Cc1cc2[nH]c(=O)c(=O)[nH]c2cc1S(=O)(=O)N1C(=O)CNc2ccccc21	-0.8	3.1
CC(C)CCNC(=O)Cn1cnc2c(cnn2-c2ccc(S(N)(=O)=O)cc2)c1=O	-0.3	.
O=C(CCn1c(SCc2cc(=O)n3cc(Cl)ccc3n2)nc2ccccc2c1=O)N1CCN(c2ccccc2)CC1	.	-0.52
CC(C)Oc1nc(N)c(C#N)c(-c2ccc3c(c2)OCO3)c1C#N	0.3	23
CCCCNC(=O)NC1C2CC3CC(C2)CC1C3 (stereo not given)	0.9	0.86
O=C(c1ccccc1)N1CCN(C2CCCC2)CC1	-0.6	-0.01
CNC(=O)CCCn1nc(C)c2sc3ccccc3c2c1=O	0.05	0.38
O=C(NCCN1CCN=C1c1ccccc1)c1ccccc1	-0.75	0.14
Cc1nc2sc(C(=O)c3ccccc3)c(N)c2c(-c2ccncc2)c1C(=O)Nc1ccccc1	.	-0.15
Cn1cc(-c2ccc(C(=O)NCc3cccc(C(F)(F)F)c3)cn2)cn1	.	1.1
Cc1ccc(C2=C(CC(=O)O)C(=O)CC2)cc1	2.2	.
CCOc1ccc(-c2cc(C(=O)O)c3ccccc3n2)cc1	0.7	76
Cc1ccc(C(=O)C2CCN(S(=O)(=O)c3cc(C(F)(F)F)cc(C(F)(F)F)c3)CC2)cc1	.	0.47
COC(=O)CNC(=O)Cn1c(=O)n(CCc2ccccc2)c(=O)c2ccccc21	-0.6	.
CCN1CCN(CC(=O)Nc2ccc(N3CCOCC3)c(F)c2)CC1	.	0.04
O=c1c(C=NCc2cccnc2)c(C(F)(F)F)[nH]n1-c1nc2ccccc2s1	-1.1	-1.1
Cc1cc2c3nonc3ccc2n1-c1ccccc1	-0.5	1.1
CCOC(=O)c1ccc(-n2cc(C(=O)c3ccc(-n4ccnc4)cc3)nn2)cc1	.	0.43
CCOc1ccc(C2=NN3C(C2)c2cccc(OCC)c2OC3c2cc(OC)c(OC)c(OC)c2)cc1 (stereo not given)	.	-0.68
CCOc1ccccc1NC(=O)CSc1nccn1-c1ccccc1	-0.5	-0.88
Cc1ccc2cc(CCNC(=O)CC(C)C)c(=O)[nH]c2c1	-0.8	2.7
COCc1cc(=O)[nH]c(Nc2nc3ccccc3s2)n1	0.1	18
C=C(C)Cn1c(CNC(=O)CCC)nc2ccccc21	-0.2	0.95
CC(C)(C)c1ccc(C(=O)NCCc2ccccn2)cc1	-0.2	.
N#CN(Cc1ccccc1)Cc1ccccc1	-0.3	-0.14
CCOC(=O)C1CCN(C(=S)NC2Cc3ccccc3C2)CC1	-0.9	0.32
Cn1nnnc1SCC(=O)Nc1ccc2nc(SCC(=O)Nc3ccccc3)sc2c1	.	0.15
CCN(CC)S(=O)(=O)c1ccc(S(=O)(=O)N2CCN(C)CC2)cc1	0.1	.
N#Cc1cc(Oc2ccc(C(=O)c3ccccc3)cc2)nc2ccccc12	0	-0.2
O=C(O)CCc1ccc(-c2cccs2)n1NC(=O)c1cccs1	1.4	-0.94
O=C(NCC(=O)N1CCC(n2c(=O)[nH]c3ccccc32)CC1)c1ccc2ccccc2c1	-0.35	.
CN(C)C(=O)C(OC(=O)c1cn(C)c2ccccc12)c1ccccc1 (stereo not given)	-0.55	.
O=C(CN1CCN(Cc2nc3ccccc3s2)CC1)N1CCc2ccccc21	-0.9	.
N=C(N)COc1ccccc1Cl	-1.1	0.55
CC(C)CC(=O)Nc1ccccc1-c1nnn(CC(=O)N2CCc3ccccc3C2)n1	-0.6	.

An excerpt of these results, as labelled records.
mol: COc1cccc(C(=O)N=c2sc3cc(Cl)ccc3n2C)c1
  AID504770 = 0.65; CapD inh = 0.18

mol: N#CN(Cc1ccccc1)Cc1ccccc1
  AID504770 = -0.3; CapD inh = -0.14

mol: CC(C)CCNC(=O)Cn1cnc2c(cnn2-c2ccc(S(N)(=O)=O)cc2)c1=O
  AID504770 = -0.3; CapD inh = .

mol: Cc1nc2sc(C(=O)c3ccccc3)c(N)c2c(-c2ccncc2)c1C(=O)Nc1ccccc1
  AID504770 = .; CapD inh = -0.15

The listing continues:
canonical_smiles	AID504770	CapD inh
Cc1ccc(C2=NNC(=O)CC2)cc1	1.4	0.71
CCn1cc(C(=O)O)cn1	-0.6	0.15
Nc1ccc(CN2CCCC2)cc1	0.45	.
Cc1cc(=O)n2nc(CN3CCN(C4CCS(=O)(=O)C4)CC3)sc2n1 (stereo not given)	0.25	.
O=C(NCCCn1ccnc1)c1cc2c(s1)CCCC2	-0.1	-0.79
O=C(O)CSc1c2c(nc3cc(C(=O)NCc4cccnc4)ccc13)CCC2	-0.15	0.45
CC(=O)N1C(=S)NC(=O)/C1=C/c1cc2cc(C)ccc2nc1N1CCOCC1	.	-0.75
CCC(C)S(=O)(=O)c1scc(-c2ccc(Cl)cc2)c1C#N (stereo not given)	-0.25	-0.41
CCCS(=O)(=O)NCc1ccco1	0.05	.
CCS(=O)(=O)N1CCC(C(=O)N2CCOCC2)CC1	-0.35	1.1
COc1ccc2c(c1)CN(CCc1ccc(Cl)cc1)CO2	-1.3	0.36
Cc1ccc2c(c1)N(CCC(=O)O)C(=O)CO2	0.2	0.09
